# KCNQ2 pot: KCNQ2 (rat) channel potentiation; O88943; CHO-K1 KCNQ2, FluxOR thallium flux fluorescence; stronger effect = higher value; B-score at 10 µM; actives 0.54% (n = 310,000); AID 2239;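 active = fluorescence ratio B-score at least 3 SD of library B-scores, with initial fluorescence B-score within 3 SD, cut at about 5.3 in these data; same plate scores as AID 2156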;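 also: B-score of peak minus minimum over baseline fluorescence ratio after K+ and Tl+ stimulus; positive B-score means potentiation of KCNQ2 with more thallium influx and brighter signal; only the inactives scoring about 0 or higher are listed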
# Target sequence (O88943 whole entry, looked up): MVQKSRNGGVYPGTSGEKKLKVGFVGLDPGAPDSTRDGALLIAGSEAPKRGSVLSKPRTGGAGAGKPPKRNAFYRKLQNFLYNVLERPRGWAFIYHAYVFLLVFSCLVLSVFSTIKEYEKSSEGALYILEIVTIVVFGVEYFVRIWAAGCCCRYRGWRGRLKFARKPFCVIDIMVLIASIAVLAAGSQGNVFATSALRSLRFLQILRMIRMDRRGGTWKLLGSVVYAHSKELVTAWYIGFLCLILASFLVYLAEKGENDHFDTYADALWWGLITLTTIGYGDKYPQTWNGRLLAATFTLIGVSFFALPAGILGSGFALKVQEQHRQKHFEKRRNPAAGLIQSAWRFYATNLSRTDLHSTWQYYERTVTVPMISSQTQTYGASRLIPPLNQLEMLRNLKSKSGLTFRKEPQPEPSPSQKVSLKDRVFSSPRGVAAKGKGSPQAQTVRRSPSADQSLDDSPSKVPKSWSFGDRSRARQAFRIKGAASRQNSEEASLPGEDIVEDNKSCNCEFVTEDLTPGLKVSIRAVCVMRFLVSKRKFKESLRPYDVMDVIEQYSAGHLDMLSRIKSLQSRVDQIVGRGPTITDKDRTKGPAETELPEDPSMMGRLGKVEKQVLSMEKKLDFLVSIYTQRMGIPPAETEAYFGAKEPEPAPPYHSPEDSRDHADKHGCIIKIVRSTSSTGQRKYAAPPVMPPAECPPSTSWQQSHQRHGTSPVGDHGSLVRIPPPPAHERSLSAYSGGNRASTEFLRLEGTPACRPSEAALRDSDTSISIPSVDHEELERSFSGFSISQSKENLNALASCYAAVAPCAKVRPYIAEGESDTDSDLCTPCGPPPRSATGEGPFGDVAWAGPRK
# KCNQ2 pot baseline: also measured in KCNQ2 pot; calls as there; B-score; compound at 10 µM; measured here: initial fluorescence intensity artifact check;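 brightness before thallium and not channel activity; 0 = typical well and far values either way flag optical interference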
# * hit, by the source's call. Only part of the results is shown. The share of hits here may be higher or lower than overall.
KCNQ2 pot	KCNQ2 pot baseline	Molecule
0.59	4.3	CCCCNC(=O)CNC(=S)N(Cc1ccc(C)cc1)Cc1ccco1
1.1	0.9	COc1ccc(OC)c(CCNC(=O)CN2C(=O)COc3ccc(S(=O)(=O)N4CCOCC4)cc32)c1
0.55	-0.83	O=c1[nH]c2ccccc2nc1C(F)(F)F
1.4	-0.47	Cc1c(NS(=O)(=O)c2ccc(Br)s2)c(=O)n(-c2ccccc2)n1C
0.27	0.08	C=CCn1c(SCC(=O)c2c(C)[nH]c3ccccc23)nnc1-c1ccncc1
0.63	-1.3	Cc1ccn(CC(=O)N2CCCC(Nc3ccc(F)c(F)c3)C2)n1 (stereo not given)
1.4	-0.18	CN(C1CCS(=O)(=O)C1)S(=O)(=O)c1cccc2nsnc12 (stereo not given)
0.71	1.1	CC(=O)Nc1ccc(C(=O)N(C)c2ccccc2)cc1
1.3	-0.39	CC(C)(C)C(=O)NC1CC2CCCC(C1)N2C(=O)Nc1ccc(Cl)cc1 (stereo not given)
1	0.03	CNc1nc(C23CC4CC(CC(C4)C2)C3)cs1
0.97	2.2	O=C(CNC(=O)c1ccco1)NCC(=O)OCc1cccc(C(=O)Oc2ccccc2)c1
0.06	0.01	Cc1cccn2c(=O)c(C=C(C#N)C#N)c(N3CCN(c4cccc(Cl)c4)CC3)nc12
1	1.1	CCc1ccc(NC(=O)Cn2nnc(C(=O)NCc3cccs3)c2N)cc1
0.03	-0.03	Cc1cc(NC(=O)CSc2nc(Cc3ccccc3)c(C)[nH]2)no1
1.3	-3.1	O=C(Nc1ccc(Cl)c(Cl)c1)c1ccc2c(c1)OCO2
0.13	-0.37	Cc1ccc2nc(NC(=O)Cn3nc(C)c([N+](=O)[O-])c3C)sc2c1
0.58	0.36	CCS(=O)(=O)N1CCCC(C(=O)NCc2cccc(OC)c2)C1 (stereo not given)
0.67	2.3	COC(C/C=C\[C@@H](O)COCc1ccccc1)OC
1.4	2.4	CCn1cc(C(=O)O)c(=O)c2cc(F)c(N3CCN(C(=S)Nc4ccc(OC)cc4)CC3)cc21
0.41	0.51	Cc1cc2nccc(-c3cccnc3)n2n1

# Profiles, looked up by structure. Screens in order: KCNQ2 pot | KCNQ2 pot baseline
# `COc1ccc(OC)c(CCNC(=O)CN2C(=O)COc3ccc(S(=O)(=O)N4CCOCC4)cc32)c1` is entered as 1.1 | 0.9
# `CC(=O)Nc1ccc(C(=O)N(C)c2ccccc2)cc1` is entered as 0.71 | 1.1
# `Cc1cc(NC(=O)CSc2nc(Cc3ccccc3)c(C)[nH]2)no1` is entered as 0.03 | -0.03
# `CCS(=O)(=O)N1CCCC(C(=O)NCc2cccc(OC)c2)C1` (stereo not given) is entered as 0.58 | 0.36
# `COC(C/C=C\[C@@H](O)COCc1ccccc1)OC` is entered as 0.67 | 2.3

# Sorted by value in KCNQ2 pot baseline (ascending): three from the list above.
KCNQ2 pot	KCNQ2 pot baseline	Molecule
0.58	0.36	CCS(=O)(=O)N1CCCC(C(=O)NCc2cccc(OC)c2)C1 (stereo not given)
1.1	0.9	COc1ccc(OC)c(CCNC(=O)CN2C(=O)COc3ccc(S(=O)(=O)N4CCOCC4)cc32)c1
0.97	2.2	O=C(CNC(=O)c1ccco1)NCC(=O)OCc1cccc(C(=O)Oc2ccccc2)c1

# Carrying on:
KCNQ2 pot	KCNQ2 pot baseline	Molecule
2.3	0.01	C/C=C/C=C/C(=O)OCC(=O)Nc1ccc(Cl)cc1
1.4	-0.1	Cc1c(Cl)cccc1NC(=S)NCc1ccccc1
0.56	0.9	NS(=O)(=O)c1ccc(CCN2C(=O)CCC2=O)cc1
0.07	0.12	O=C(Nc1ccccc1Br)c1ccc(N2CCCC2=O)cc1
0.52	-3.1	COc1ccc(NC(=O)N2CCCC2C(=O)NCC2CCCCC2)cc1 (stereo not given)
0.7	-1.9	COc1ccc(OC)c(/C=C2\Oc3cc(OCC(=O)N4CC(O)C[C@H]4C(=O)O)ccc3C2=O)c1 (stereo not given in full)
1.1	-1.2	COC(=O)[C@H]1[C@H](c2ccccc2)[C@H](C(=O)OC)O[C@H]1c1ccccc1
1.2	-0.08	Cc1nnc(SCC(=O)Nc2sc3c(c2C(N)=O)CCCC3)[nH]c1=O
0.85	0.19	CC1CCCN(C(=O)C2CCN(CC(C)c3ccccc3)CC2)C1 (stereo not given)
2.8	-0.29	O=C(Nc1ccc(S(=O)(=O)NC2=NCCCCC2)cc1)c1ccc(Cl)cc1Cl
0.24	2.4	COCCNC(=O)c1c[nH]c2ccc(S(=O)(=O)Nc3ccccc3F)cc2c1=O
0.02	3.2	COc1ccc([N+](=O)[O-])cc1NC(=O)C(C)OC(=O)C1CCCC1 (stereo not given)
0.41	-0.73	O=C1CC(N2CCOCC2)C(=O)N1c1ccc(Cl)cc1 (stereo not given)
0.58	0.79	O=S(=O)(NC1CCCCC1N1CCC(O)CC1)c1ccc(Cl)cc1 (stereo not given)
2.2	-0.7	COc1cc(/C=N/Nc2ccc(C(F)(F)F)cn2)ccc1O
0.7	-0.64	Cc1ccc(C)c(S(=O)(=O)N2CCCN(C)CC2)c1
1.2	-2.7	COc1cc(OC)nc(NC(C)=O)n1
0.78	-1.2	CC1=C(C)CC(C(=O)NNC(=O)c2ccccc2)C(C(=O)O)C1 (stereo not given)
1.8	-0.67	COCCC(=O)N1CCC(Oc2ccc(C(=O)NC(C)CCn3cccn3)cc2)CC1 (stereo not given)
2.1	-1.2	CCOc1ccc(NC(=O)c2ccc(NC(=O)CN3C(=O)C(=O)N(CC(C)C)C3=O)cc2)cc1
1.3	-0.42	O=C(NC(=S)NCc1ccco1)c1ccc(Br)cc1
0.52	-0.2	COc1cccc(C(=O)Nc2nnc(SCC(=O)Nc3ccc(NC(C)=O)cc3)s2)c1
0.04	-0.33	CC1CCCC(C)N1C(=O)c1cc2ncc(CCCl)cn2n1 (stereo not given)
0.45	-0.47	COC(=O)C1=C(O)CSC1=Nc1ccccc1
0.95	0	Cn1ncc([N+](=O)[O-])c1C(=O)Nc1ccccc1
1.6	-0.24	CC(C)Cc1nnc(NC(=O)CCC(=O)NC2CCCCCC2)s1
0.77	1.6	CCOC(=O)c1ccc(NC(=O)c2nc(SC)ncc2Cl)cc1
1.1	-0.02	CCOc1ccc(S(=O)(=O)NCCC(=O)N2CCCCCCC2)cc1
0.15	1.8	Cc1cccc(C(=O)Nc2c(C(=O)N(C)C)cnn2-c2ccccc2)c1
1	2.1	Cc1ccc(/C=[N+](\[O-])c2ccccc2C)o1
0.99	1	COc1cc(C(=O)NCCC(=O)NC(C)C)cc(OC)c1OC
0.43	0.86	O=C(NCCCc1ccccc1)C1CC(=O)N(c2ccc3c(c2)OCCO3)C1 (stereo not given)
0.13	-1.2	CCC(C)NC(=O)CS(=O)Cc1nc(-c2cccc(C)c2)oc1C (stereo not given)
0.03	-1	COc1c(S(=O)(=O)Nc2cccnc2)ccc(Cl)c1Cl
2	-0.05	CCc1nc(SCC(=O)OC(C)C)c2ccccc2n1
0.33	-1.1	Cc1ccc(C)n1-c1ccc(C(=O)NCc2cccnc2)cc1
0.71	2	COc1ccc2oc(C(=O)OCC(=O)N(C)Cc3ccccc3)c(C)c2c1
0.13	-0.54	COC(=O)c1ccc(C(=O)OC)c(NC(=O)CN(c2ccccc2)S(=O)(=O)N(C)C)c1
0.41	1.8	O=C(O)c1cccc(NC(=O)c2ccc3c(c2)C(=O)N(Cc2ccco2)C3=O)c1
0.52	-2.7	CC1CCN(C(=O)c2ccc(N(C)S(C)(=O)=O)cc2)CC1
0.68	0.03	COc1ccc(S(=O)(=O)n2nc(OC(=O)c3ccco3)cc2N)cc1
0.79	-1.7	COc1ccccc1/C=N/NC(=O)c1ccc(NC(=O)c2cccc([N+](=O)[O-])c2)cc1
0.04	-1.1	COc1ccc(CC(NC(C)=O)C(=O)NC2CCN(S(=O)(=O)c3ccc(NC(C)=O)cc3)CC2)cc1 (stereo not given)
0.66	1.3	CCOn1c(=O)c(-c2ccccc2)[n+]([O-])c2ccccc21
0.27	-0.7	CCN(CC)c1ccc(NC(=O)c2ccccc2)cc1S(=O)(=O)Nc1ccccc1OC
1.3	0.33	CCOC(=O)c1c(C)n(C)c2ccc(O)c(CN(C)C)c12
0.85	0.79	C=CCn1c(SCC(=O)c2[nH]c(C)c(C(=O)OCC)c2C)nc2scc(-c3ccc(OC)c(OC)c3)c2c1=O
0.17	-1.5	O=C(CSc1ncnc2c1nnn2Cc1ccccc1)NC1CCCCC1
0.85	1.1	C/C(=N\NS(=O)(=O)c1ccc(Br)cc1)c1ccc2c(c1)OCO2
0.01	-0.46	COc1cc(OC)c(C(=O)OC(C)C(=O)Nc2cccc(C(F)(F)F)c2)cc1OC (stereo not given)
0.18	0.25	O=C(NCc1ccc2c(c1)OCO2)Nc1ccc(Cl)cc1
0.57	1.2	O=C(c1ccc(NS(=O)(=O)c2ccc3[nH]c(=O)[nH]c3c2)cc1)N1CCN(c2ccccc2O)CC1
1.1	-2.6	COc1ccc(N=Nc2cc(-c3ccccc3)ccc2O)cc1
0.42	-0.28	COc1cccc(NC(=O)c2cnsn2)c1
0.01	1.2	Cc1cc(C)c(NC(=S)N2CCC(N(C)CC3CCCO3)CC2)c(C)c1 (stereo not given)
4.2	0.1	N#Cc1c(N)sc2c1CCCCCC2
0.43	1.4	CCCCn1c(SCC(=O)NC2CC2)nnc1-c1ccncc1
0.69	-1.6	CN1C(=O)/C(=C/c2ccc(OCc3ccc(F)cc3)cc2)N(C)C1=S
2.2	-0.9	O=C(NCCCN1CCCC1=O)c1cccc(Oc2ccccc2)c1
0.05	0.04	CCOc1ccc(C(C)NC(=O)c2cccs2)cc1OCC (stereo not given)

# Going on with the list.
KCNQ2 pot	KCNQ2 pot baseline	Molecule
1.6	0.1	Cc1cc(S(=O)(=O)n2ccnc2)c(Cl)cc1Cl
0.46	-2.2	COc1cccc(CN2CCN(Cc3ccc4c(NC(C)=O)cccc4n3)CC2CCO)c1 (stereo not given)
0.44	-0.01	COC(=O)c1cccc(NC(=S)Nc2ccccc2Cl)c1
2	-0.56	CC(=O)c1cc(CN2CCN(CCc3ccccc3)C(CCO)C2)cs1 (stereo not given)
0.31	0	CCCCNC(=O)c1nn2c(C(F)(F)F)cc(-c3ccccc3)nc2c1Br
2.5	0	CCOc1ccc2[nH]c(C)c(CN3CCOCC3)c(=O)c2c1
0.63	-0.67	CCOC(=O)/C=C1\SCC(=O)N1CC(=O)N1CCOCC1
0.05	-0.04	O=C(CC1SC(N2CCOCC2)=NC1=O)Nc1cc([N+](=O)[O-])ccc1Cl (stereo not given)
0.12	-0.75	COc1ccc(/C(C)=N/NC(=S)NCCc2ccccc2)c(O)c1
0.78	-0.03	COc1ccc(NC(=O)c2c(N)no[n+]2[O-])c(OC)c1
0.04	0.14	O=C(NC(Cc1ccc(O)cc1)C(=O)O)c1ccco1 (stereo not given)
1.3	-0.21	CC(O)/C=C/c1ccc2ccccc2n1 (stereo not given)
1.3	-1.3	Cc1nn(-c2ccccc2)c2sc(C(=O)O)cc12
0.04	1.1	CN(c1ccc(C(=O)Nc2nccs2)cc1)S(=O)(=O)c1ccccc1
0.58	0.06	CCOC(=O)CNC(=O)c1cccnc1Oc1ccc(Cl)cc1
0.2	-0.32	O=C(NC1CCCCC1)c1ccccc1NC(=O)C1CC(=O)N(c2ccccc2)C1 (stereo not given)
0.75	-0.28	COc1ccc(C(=O)NNC(=O)CN2CCC(n3nnc4cc(C(F)(F)F)ccc43)CC2)cc1
0.2	-0.97	COC(=O)C(C)Oc1ccc(-c2nccc(-c3cccs3)n2)cc1 (stereo not given)
0.82	2	Cc1ccc(-c2nc3ccccc3[nH]2)s1
2.5	-2	COc1ccc(C(=O)Nc2ccccc2SCc2cc(=O)n3nc(C)sc3n2)cc1OC
4	-0.65	O=C(NC(=S)N1CCCc2ccccc21)c1ccc([N+](=O)[O-])cc1
0.09	-0.04	COC(=O)C1=C(N)OC2=C(C(=O)CC(C)(C)C2)C1c1cccs1 (stereo not given)
0.08	-0.8	O=C(NC(Cc1c[nH]c2ccccc12)c1nnc2n1CCCCC2)c1ccccc1 (stereo not given)
0.15	0.04	C/C(=C\COc1cc(=O)[nH]c2ccccc12)CCC(O)C(C)(C)O (stereo not given)
0.63	0.01	COc1cc(CNc2nc3ccccc3n2C)cc(OC)c1OC
1.6	-0.35	CCSc1nnc(SCC(=O)NNC(=O)c2ccccc2F)s1
0.39	0.22	O=C1CN=C(Nc2ccccc2)N1Cc1cccs1
1.3	-0.95	O=S(=O)(NC1CCCCCCC1)c1cccs1
0.16	1.1	CC(NC(=O)c1ccc(CS(C)(=O)=O)cc1)c1ccc(-c2ccccc2)cc1 (stereo not given)
1.6	0.63	Cc1ccc(S(=O)(=O)N2CCCCC2)cc1NC(=O)COC(=O)C1=COCCO1
1.8	-0.43	Cc1nn(C2CCS(=O)(=O)C2)c(Cl)c1/C=C/C(=O)OCC(=O)Nc1ccccc1[N+](=O)[O-] (stereo not given)
0.46	-4.3	CC(=O)c1ccccc1NC(=O)COC(=O)CCCN1C(=O)c2cccc3cccc(c23)C1=O
2.3	0.01	Cc1cc(-c2cc(C(=O)NC3CCCC3)on2)nc(NCC2CC2)n1
0.7	0.94	COc1ccc(CN2CCN(C(=O)Cn3nc(C)n4cccc4c3=O)CC2)c(OC)c1OC
0.24	-1.2	Cc1oc(-c2ccc(Cl)cc2)nc1CS(=O)CC(=O)NCc1ccco1 (stereo not given)
0.99	-2.3	CCOC(=O)c1oc2cccc(O)c2c1CN(Cc1ccccc1)C(C)=O
0.21	0.05	Cn1nc(C(=O)Nc2ccc(Cl)cc2)cc1C(=O)Nc1ccc(Cl)cc1
1.9	0.51	Cc1cc(C)nc(SCC(=O)O)n1
1.5	-0.13	CCC(=O)Nc1cc(C(=O)OCc2ccc(C(=O)Oc3ccccc3)cc2)ccc1C

# Three structures already listed, sorted by count of non-hydrogen atoms, lowest first:
KCNQ2 pot	KCNQ2 pot baseline	Molecule
0.39	0.22	O=C1CN=C(Nc2ccccc2)N1Cc1cccs1
0.24	-1.2	Cc1oc(-c2ccc(Cl)cc2)nc1CS(=O)CC(=O)NCc1ccco1 (stereo not given)
0.16	1.1	CC(NC(=O)c1ccc(CS(C)(=O)=O)cc1)c1ccc(-c2ccccc2)cc1 (stereo not given)
